NS1 function inh – qHTS Assay for Inhibitors of Influenza NS1 Protein Function | AID 2326, 2010 | S. cerevisiae slowed by influenza A NS1, growth recovery by OD600 | Potency, µM (highest dose often 46.1 µM), without a hit: at the highest dose activity, positive = more growth | 0.4% of 270,000 active; active means well fitted rising curve with a large enough effect; inconclusive means small, poorly fitted or top-dose-only effect; inactive means no such curve, though single readings can be large or run the other way; also: nearly all actives have a fitted effect of over 50% in size
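Compounds were scored for reversing the slow growth caused by influenza A NS1 in S. cerevisiae, measured by optical density at 600 nm. Assay medium contained 2% galactose at pH 6.0; NS1-free yeast of the same strain were the positive control.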
Cruzain inh Det – qHTS Assay for Promiscuous and Specific Inhibitors of Cruzain (with detergent); purified cruzain, Z-FR-AMC fluorescence, 0.01% Triton; Potency, µM, for inactives: max response, negative = inhibition, most hits filed as inhibitors; 0.43% of 200,000 active;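 also: plate controls were neutral wells for no effect and buffer without enzyme for full effect; nearly all actives have a fitted effect of over 40% in size; top concentration of the series not given in the record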
Target sequence (P25779 123-467 limits assumed): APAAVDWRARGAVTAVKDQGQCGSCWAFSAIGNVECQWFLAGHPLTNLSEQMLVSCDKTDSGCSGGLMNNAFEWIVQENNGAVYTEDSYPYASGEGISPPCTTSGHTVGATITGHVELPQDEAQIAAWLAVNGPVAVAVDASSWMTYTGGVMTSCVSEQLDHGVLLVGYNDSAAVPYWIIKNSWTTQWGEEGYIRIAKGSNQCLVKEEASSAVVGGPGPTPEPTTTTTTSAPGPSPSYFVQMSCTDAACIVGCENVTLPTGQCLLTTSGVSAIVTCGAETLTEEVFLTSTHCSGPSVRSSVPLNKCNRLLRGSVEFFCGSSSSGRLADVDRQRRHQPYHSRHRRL
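Read-out: AMC fluorescence (360 nm excitation, 450 nm emission), four reads over 2 min, first-to-third difference used. Conditions: cruzain 1.5 nM, Z-FR-AMC 2 uM, pH 5.5 acetate, 5 mM DTT, 0.01% Triton X-100.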
Cruzain inh noDet – qHTS Assay for Promiscuous and Specific Inhibitors of Cruzain (without detergent) | Cruzipain (Trypanosoma cruzi), P25779 | purified cruzain, Z-FR-AMC fluorescence, no detergent | Potency, µM, without a hit: max response, negative = inhibition, hits mostly inhibitors | 2.3% of 200,000 active | AID 1476, 2009;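 also: plate controls were enzyme without inhibitor for no effect and buffer without enzyme for full effect; nearly all actives have a fitted effect of over 40% in size; top concentration of the series not given in the record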
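Detergent-free condition (0.00005% Triton X-100) in acetate buffer pH 5.5 with DTT. 1.5 nM enzyme and compound were pre-mixed 15 min, then 2 uM Z-FR-AMC substrate added; reaction progress from fluorescence change between first and third reads (60 s).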
RE007 growth inh – qHTS Assay for Inhibitors of the HIV-1 protein Vpr | S. pombe RE007 Vpr strain, BacTiter-Glo ATP luminescence, 24 h; control for the full effect not named in the record | Potency, µM (doses to about 92.2 µM), for the others: at the top dose activity change, negative = less growth | 0.21% of 360,000 active | AID 651644, 2012; active = well fitted falling curve with a large enough effect; inconclusive = small, poorly fitted or top-dose-only effect; inactive = no such curve, though single readings can be large or run the other way;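 also: % is scaled to controls: 0 for no effect and ±100 for the full control effect; nearly all actives have a fitted effect of over 50% in size; the assay follows cell death caused by Vpr and the record does not say whether a fall means rescue or toxicity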
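Fission yeast RE007 carrying one integrated HIV-1 vpr copy, seeded at OD 0.01 in PMG+AL medium with 23 nL pinned compound. Grown 24 h at 30 degrees; viability read by BacTiter-Glo luminescence after 5 min.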
LASV entry inh – qHTS for Inhibitors of binding or entry into cells for Lassa Virus; Potency, µM (highest dose often 37.9 µM), without a hit: at the highest dose activity change, negative = inhibition, most hits filed as inhibitors; 1.2% of 300,000 active; Lassa virus pseudotype entry inhibition, cell reporter; control for the full effect not named in the record; active means well fitted inhibition curve with a large enough effect; inconclusive means small, poorly fitted or top-dose-only effect, or effect the other way; inactive means flat fitted curve, though single readings scatter; tested in HEK293 cells; also: % is scaled to controls: 0 for no effect and ±100 for the full control effect; nearly all actives have a fitted effect of over 50% in size; luciferase read-out
SARS PLP yeast – qHTS of Yeast-based Assay for SARS-CoV PLP | S. cerevisiae expressing SARS-CoV PLpro, growth rescue; control for the full effect not named in the record | 0.19% of 330,000 active | Potency, µM (series often up to 32.9 µM), inactives show at the top dose activity, positive = growth rescue; active means well fitted rising curve with a large enough effect; inconclusive means small, poorly fitted or top-dose-only effect; inactive means no such curve, though single readings can be large or run the other way; also: 0% is about no effect; nearly all actives have a fitted effect of over 55% in size; growth read by luminescence after 48 h
2A StopGo – High Throughput Screening for Foot and Mouth Disease Virus Antivirals; human cells with a luciferase reporter of 2A StopGo recoding; control for the full effect not named in the record; Potency, µM (titrated, usually from 57.9 µM), inactives show top-dose signal change, negative = less light; 1.2% of 410,000 active; AID 1159524, 2015; active = well fitted falling curve with a large enough effect; inconclusive = small, poorly fitted or top-dose-only effect; inactive = no such curve, though single readings can be large or run the other way; tested in HEK293T cells; also: % is scaled to controls: 0 for no effect and ±100 for the full control effect; nearly all actives have a fitted effect of over 45% in size; luciferase light after 4 h
MARV entry inh – qHTS for inhibitors of binding or entry into cells for Marburg Virus; Marburg virus pseudotyped entry inhibition, cell reporter; control for the full effect not named in the record; about a third of the inactives were read at about 46 µM; Potency, µM (top dose mostly 37.8 µM), inactives show at the highest dose activity change, negative = inhibition, usual class: inhibitors; 1.8% of 300,000 active; AID 540276, 2011; active = well fitted inhibition curve with a large enough effect; inconclusive = small, poorly fitted or top-dose-only effect, or effect the other way; inactive = flat fitted curve, though single readings scatter; tested in HEK293 cells; about a fifth of its hits are not listed in these tables; also: % is scaled to controls: 0 for no effect and ±100 for the full control effect; luciferase read-out
* hit, by the source's call; ? = inconclusive; . = not tested or not shown; & = joins results of further samples; ! = not confirmed by another sample; [ ] = dose if it differs, or a comment. Unless noted, calls follow the shape of the dose curve; as a rule, active = well fitted curve in the direction sought with a large enough effect; inconclusive = small, poorly fitted or top-dose-only effect, or another doubt; inactive = no such curve, though single readings can be large; an effect the other way counts as inactive or inconclusive. Potency is read from the fitted curve at half-maximal effect. Hits appear at their usual frequency; any-hit rate near 4.5%.

SMILES	NS1 function inh	Cruzain inh Det	Cruzain inh noDet	RE007 growth inh	LASV entry inh	SARS PLP yeast	2A StopGo	MARV entry inh
CCOC(=O)c1c(C)[nH]c(C)c1C(=O)CSc1nnc(-c2ccco2)n1Cc1ccccc1	-12%	-3.2%	?	-4%	-10%	-5%	-16%	-13%&-13%
CCCCOC(=O)c1ccc(NC(=S)N2CCN(c3ncc4c(=O)c(C(=O)O)cn(CC)c4n3)CC2)cc1	3%	.	.	4%	.	-1%	?	.
Cc1nnc(SCC(=O)Nc2ccccc2)c2ccccc12	?	.	.	34%	-19%	0%	13%	-4%[46.1 µM]
Cc1cc(=O)oc2cc(NC(=O)c3cccc(F)c3)ccc12	1%	.	.	0%	16%	-1%	39%[activator]	5%[46.1 µM]
COCCn1c(SCc2ccccc2F)nc2c([nH]c3ccccc32)c1=O	.	-0.9%	-5%	.	?	.	-22%	.
Nc1n[nH]c2c1C1(CCCCC1)Cc1ccccc1-2	20%	-11%	?	12%	3%	2%	-13%	-1%
COc1ccc(CNC(=O)C2CCCN2S(=O)(=O)c2ccc(S(=O)(=O)N(C)C)cc2)cc1 (stereo not drawn)	-4%	3.1%	1%	-21%	1%	-9%	-24%	6%&6%
CCc1nn2c(=O)cc(COc3ccc(/C=C4\C(=N)N5N=C(CC(C)C)SC5=NC4=O)cc3)nc2s1	8%	.	.	10%	.	0%	-22%	.
C=C1C(=O)O[C@H]2[C@H]1[C@H](OC(=O)CC(=O)O[C@@H]1C[C@@H](C)[C@@H]3C=CC(=O)[C@@]3(C)[C@H]3OC(=O)C(=C)[C@H]13)C[C@@H](C)[C@H]1C=CC(=O)[C@]12C	1%	.	.	-15%	.	1%	-19%	.
CCOC(=O)C(=O)NCC(c1cccnc1)N1CCN(c2ccccc2)CC1 (stereo not drawn)	.	-5.3%	10%	.	-21%[46.1 µM]	.	-16%	.
Cc1ccc(S(=O)(=O)n2c([N+](=O)[O-])cnc2C)c(C)c1C	9%	-2.4%	2%	-9%	0%	14%	-11%	4%
CCOc1ccc(C(=O)NCC(=O)OCCCOC(=O)CNC(=O)c2ccc(OCC)cc2)cc1	16%	.	.	-1%	-1%	2%	-8%	17%
COc1cccc(OC)c1OCCCOc1ccc(C)cc1Br	-27%	-5.1%	-4%	-6%	1%	-91%	-7%	?
COc1cccc(C(=O)Nc2ccc(NC(=O)Cc3ccccc3)cc2)c1	12%	.	.	2%	-12%[46.1 µM]	10%	26%	-12%[46.1 µM]
O=C(c1cccs1)N1CCCC(c2nc3c(nnn3Cc3c(Cl)cccc3Cl)c(=O)[nH]2)C1 (stereo not drawn)	-6%	.	.	4%	8%[46.1 µM]	1%	-18%	?
c1ccc(CCN=C2CCCc3c2[nH]c2ccccc32)cc1	3%	.	.	-7%	-3%[46.1 µM]	-1%	-16%	-1%[46.1 µM]
O=C(CSc1nnc(Nc2ccccc2F)s1)NCC1CCCO1 (stereo not drawn)	.	.	.	-7%	-1%[46.1 µM]	-3%	13%	?
Cc1ccc(S(=O)(=O)NC2CCC(C(=O)O)CC2)cc1 (stereo not drawn)	11%	3.1%	-1%	11%	2%	3%	3%	-1%
Cc1cc(Br)ccc1NC(=O)c1ccc(-n2cncn2)c([N+](=O)[O-])c1	.	.	.	0%	-8%[46.1 µM]	-1%	-6%	-11%
CCN(CC(=O)NCCCN1CCOCC1)S(=O)(=O)c1cc(Cl)ccc1Cl	-11%	.	.	2%	.	0%	5%	.
O=C(NNc1ccc(Cl)cc1)c1cccs1	-74%	.	.	119%	-18%[46.1 µM]	-6%	-19%	?
C/C(CC(=O)NCc1ccco1)=N\NC(=O)CC#N	6%	.	.	2%	7%	0%	-23%	4%
CCOC(=O)c1c(Nc2ccccc2)sc(/C=C2\C=Nc3ccccc32)c1O	18%	4.7%	-27%	1%	0%	4%	-18%	?
Clc1cccc(-c2ccc(C=Nc3ccc(N4CCOCC4)cc3)o2)c1Cl	-30%	.	.	-26%	1%	-4%	0%	1%
O=C(c1cccs1)N1CCN(S(=O)(=O)c2cccs2)CC1	.	.	.	-8%	0%[46.1 µM]	0%	-2%	-2%[46.1 µM]
Cc1nc2ccc(S(=O)(=O)CCC(=O)Nc3ccc(F)cc3C)cc2s1	.	-1.0%	-6%	.	-3%[46.1 µM]	.	-25%	.
CCOC(=O)CN(C(=O)CSc1nnc(C)n1-c1ccccc1)c1ccccc1	-3%	-1.1%	6%	5%	-1%	1%	9%	5%
O=C(NC(=S)NCCN1CCOCC1)c1ccccc1Cl	4%	-1.4%	-2%	14%	-14%	2%	12%	5%
CC(N)C(=O)OC(C)(C)Cc1ccc(Cl)cc1 (stereo not drawn)	-5%	6.6%&1.5%	6%&-6%	-2%	?	.	-14%&-8%	10µM*!
Cc1cc(C(=O)NCCC(c2ccccc2)c2ccccc2)c(C)o1	-7%	-3.4%	-3%	-8%	-24%	-15%	12%	?

An excerpt from above, showing only Cruzain inh noDet, SARS PLP yeast and 2A StopGo.
compound	Cruzain inh noDet	SARS PLP yeast	2A StopGo
Cc1nc2ccc(S(=O)(=O)CCC(=O)Nc3ccc(F)cc3C)cc2s1	-6%	.	-25%
CCOC(=O)CN(C(=O)CSc1nnc(C)n1-c1ccccc1)c1ccccc1	6%	1%	9%

Further structures.
SMILES	NS1 function inh	Cruzain inh Det	Cruzain inh noDet	RE007 growth inh	LASV entry inh	SARS PLP yeast	2A StopGo	MARV entry inh
CN1CCN(c2ccc(CNC(=O)c3ccc4c(c3)OCCO4)cc2)CC1	5%	.	.	16%	6%[46.1 µM]	-1%	1%	-3%[46.1 µM]
CN(C)C(=O)c1cc(C(=O)c2ccc(Cl)cc2Cl)c[nH]1	-3%	.	.	19%	4%	-1%	10%	?
CC(=O)NC(Cc1ccccc1)c1ccc2c(c1)OCCCO2 (stereo not drawn)	11%	-1.5%	-15%	19%	22%	-3%	31%[activator]	13%
CCOC(=O)c1c(NC(=O)C2c3ccccc3Oc3ccccc32)sc2c1CCC(CC)C2 (stereo not drawn)	.	-0.7%	14%	.	-18%[46.1 µM]	.	-8%	1%[46.1 µM]
Cc1ccc(NC(=O)N2CCCC2C(=O)Nc2nnc(C(C)C)s2)cc1 (stereo not drawn)	10%	.	.	1%	3%	-5%	-8%	20%[46.1 µM]
CC(=O)c1nn(-c2ccc(OC(F)(F)F)cc2)nc1Nc1ccccc1	.	1.0%	-12%	.	9%[46.1 µM]	.	-20%	28%[46.1 µM]
CCCN(CCC)C(=O)c1c2c(nc3ccccc13)C(=O)N(C1CCCCC1)C2	.	-1.5%	4%	.	0%[46.1 µM]	.	-4%	.
CCn1c(SCC(=O)N2CCCC2)nc2c(c1=O)SCC2	10%	.	.	6%	-19%[46.1 µM]	19%	2%	6%[46.1 µM]
COC(=O)c1c(C)[nH]c(O)c1C=Nc1ccc(C(C)C)cc1	-35%	-11%	?	4%	-2%	-25%	20%	-12%
CCn1c(SCC(=O)Nc2ccccc2N2CCCCC2)nc2c1c(=O)n(C)c(=O)n2C	-37%	-3.2%	25%	-9%	5%	?	?	?

A different layout for part of the listing above:
> CCn1c(SCC(=O)Nc2ccccc2N2CCCCC2)nc2c1c(=O)n(C)c(=O)n2C
  NS1 function inh = -37%
  Cruzain inh Det = -3.2%
  Cruzain inh noDet = 25%
  RE007 growth inh = -9%
  LASV entry inh = 5%
  SARS PLP yeast = ?
  2A StopGo = ?
  MARV entry inh = ?

> CC(=O)c1nn(-c2ccc(OC(F)(F)F)cc2)nc1Nc1ccccc1
  NS1 function inh = .
  Cruzain inh Det = 1.0%
  Cruzain inh noDet = -12%
  RE007 growth inh = .
  LASV entry inh = 9%[46.1 µM]
  SARS PLP yeast = .
  2A StopGo = -20%
  MARV entry inh = 28%[46.1 µM]

> COC(=O)c1c(C)[nH]c(O)c1C=Nc1ccc(C(C)C)cc1
  NS1 function inh = -35%
  Cruzain inh Det = -11%
  Cruzain inh noDet = ?
  RE007 growth inh = 4%
  LASV entry inh = -2%
  SARS PLP yeast = -25%
  2A StopGo = 20%
  MARV entry inh = -12%

Next results follow.
SMILES	NS1 function inh	Cruzain inh Det	Cruzain inh noDet	RE007 growth inh	LASV entry inh	SARS PLP yeast	2A StopGo	MARV entry inh
O=C(Cc1ccc(F)cc1)Nc1cccc(-c2nc3cccnc3s2)c1	.	-4.0%	0%	.	-14%[46.1 µM]	.	16%	?
Cc1ccc(C(=O)NCCCNC(=O)c2ccccn2)cc1	12%	.	.	-15%	12%[46.1 µM]	13%	-9%	2%[46.1 µM]
O=C(NNC1CC(=O)N(c2ccc3c(c2)OCCO3)C1=O)c1ccc(Cl)cc1 (stereo not drawn)	.	.	.	0%	1%[46.1 µM]	-4%	29%	0%[46.1 µM]
O=c1[nH]c(=S)n(-c2ccc(Cl)cc2)c(O)c1C=Nc1ccc(N2CCOCC2)cc1	8%	.	.	11%	.	0%	-24%	.
CN(C)S(=O)(=O)c1cccc(NC(=O)COC(=O)c2cccc(S(=O)(=O)N3CCc4ccccc4C3)c2)c1	?	-2.1%	?	-16%	-4%	15%	-20%	-1%
COC(=O)C1=C(C)N(c2ccc(C(=O)OC)cc2)C(=O)C1	-6%	5.3%	-3%	-7%	-20%	-2%	-4%	-33%
O=C(NC1CCCCCCC1O)c1ccccc1 (stereo not drawn)	.	.	.	3%	7%	.	19%	?
CC(=O)NS(=O)(=O)c1ccc2c(c1)C(=O)c1cc(S(=O)(=O)NC(C)=O)ccc1-2	19%	.	.	14%	.	1%	-1%	.
COc1ccccc1Cn1c(=O)oc2ccc(C)cc21	-42%	.	.	-25%	-3%[46.1 µM]	-8%	18%	?

Screening results as filed in PubChem.
